From PubChem
H5N1 CPE – antiviral screen in MDCK cells, H5N1 avian flu. cytopathic effect, luminescence, 72 h; hits give high values; no value below 0 was filed and about half of the inactive calls have no number; reference of the scale not given here. inhibition, % at 50 µM. actives 0.07% (n = 96,000). AID 740; in the data active = inhibition above about 25%
Numbers without * were called inactive; i = inactive.

SMILES	H5N1 CPE
CC(C)COCC1CC2(CC(C)C(=O)CC2=O)C(=O)O1 (configuration not stated)	i
COc1ccc(NC2=C(C(C)=O)C(c3ccc4c(c3)OCO4)C(C(C)=O)C(C)(O)C2)cc1 (configuration not stated)	i
O=C(C1CCN(S(=O)(=O)c2ccc(F)cc2)CC1)N1CCOCC1	0.6
CC(=O)c1c(C)[nH]c(C(=O)NC2=NCCS2)c1C	0.2
COc1ccc(-c2c(C(F)(F)F)oc3c(CN4CCN(C)CC4)c(O)ccc3c2=O)cc1	0.3
CCOc1ccc(N(C(C)C(=O)NCc2ccco2)S(C)(=O)=O)cc1 (configuration not stated)	0.1
CC(C)Cc1nc2n[nH]c(N)c2c2c1CCC2	0.1
O=C(O)CN(c1ccc2c(c1)OCCO2)S(=O)(=O)c1ccccc1	i
Cn1c(SCC(=O)N2CCN(c3ccccc3)CC2)nnc1-c1ccco1	1.8
CN(CCCNS(=O)(=O)c1cccc2cccnc12)Cc1ccccc1	1.8
c1ccc(-c2nc3nonc3nc2-c2ccccc2)cc1	i
COc1ccc(Cl)cc1N1CC(C(=O)Nc2nccs2)CC1=O (configuration not stated)	i

Laid out differently: results already given
O=C(C1CCN(S(=O)(=O)c2ccc(F)cc2)CC1)N1CCOCC1
  H5N1 CPE: 0.6
COc1ccc(Cl)cc1N1CC(C(=O)Nc2nccs2)CC1=O (configuration not stated)
  H5N1 CPE: i
c1ccc(-c2nc3nonc3nc2-c2ccccc2)cc1
  H5N1 CPE: i
CN(CCCNS(=O)(=O)c1cccc2cccnc12)Cc1ccccc1
  H5N1 CPE: 1.8

Carrying on:
SMILES	H5N1 CPE
O=C(C1CCCN(S(=O)(=O)c2cccc3cccnc23)C1)N1CCN(c2ccc(F)cc2)CC1 (configuration not stated)	0.6
O=C(Nc1ccc(C(=O)N2CCOCC2)cc1)c1cccs1	0.1
CCCc1nnc(SCc2ccc(OC)cc2)n1N	0.0
c1ccc2c(c1)oc1c(NCCCN3CCOCC3)ncnc12	i
COC(=O)Cn1cnc(=O)c(C#N)c1/C=C/N(C)C	0.1
O=C(CCc1ccc(S(=O)(=O)N2CCOCC2)cc1)N1CCCC1	0.1
CCNc1nc(SCCOc2ccc(C)cc2)nc(N(C)C)n1	i
C/C=C(\CS(=O)(=O)c1ccccc1)S(=O)(=O)c1ccccc1	1.9
CCc1nc2ccccc2c(C(=O)Oc2cccc3cccnc23)c1C	2.8
Cc1cc(N(C)C)c(C#N)c(=O)[nH]1	i
CC1(C)Cc2c(c(-c3ccccc3)[nH]c(=O)c2C#N)CS1	0.1
Cc1c(NC(=O)C(C)Oc2ncnc3ccccc23)c(=O)n(-c2ccccc2)n1C (configuration not stated)	1.3
C=CCn1c(COc2ccc(Cl)cc2)nnc1SCC(=O)N1CC(=O)Nc2ccccc21	i
Cc1ccc(-c2nnn(CC(=O)N(c3ccccc3)C(C(=O)NC3CCCC3)c3ccco3)n2)o1 (configuration not stated)	0.9
Cc1ccc2nc(SC(C)C(=O)N3CCCC3)[nH]c2c1 (configuration not stated)	i
Cc1csc2ncc(C(=O)NCc3ccccc3Cl)c(=O)n12	0.3
Cc1noc(C)c1COC(=O)[C@H](C)NS(=O)(=O)c1ccc(Cl)c(Cl)c1	i
O=C(CN1CCC(NC(=O)Cc2ccccc2)CC1)Nc1cccc2ccccc12	i
COc1ccc2c(c1)nc(SCC(=O)c1cccs1)n2C	0.6
CCc1c(C)sc(NC(=O)c2cc(-c3ccc(O)cc3)on2)c1C#N	i
Cc1cc(NC(=O)CSc2nc3ccccc3s2)no1	0.1
CC1CCCN(Cc2c(O)ccc3c(=O)c(-c4nc5ccccc5s4)c(N)oc23)C1 (configuration not stated)	i
c1ccc(-c2cnnc(N3CCOCC3)n2)cc1	0.6
CCCCOC(=O)NC(NCC(O)c1ccccc1)(C(F)(F)F)C(F)(F)F (configuration not stated)	0.3
COC(=O)CC/C(O)=C1\C(=O)CC(C)(C)CC1=Nc1ccccc1OC	0.2
Cc1cc(C)c2c(=O)n(CC(=O)NCCCN3CCN(c4ccccc4F)CC3)sc2n1	i
Cc1nnc(SC(=O)N2c3ccccc3Sc3ccccc32)s1	30*
CCOP(=O)(c1ccccc1)c1nc(-c2ccc(F)cc2)oc1N1CCCCC1 (configuration not stated)	i
Cc1cc(NC(=O)CSc2nnc(-c3ccc4c(c3)OCCO4)o2)no1	i
CC(=O)C1=C(C)Nc2ncnn2C1c1ccc(Cl)cc1 (configuration not stated)	3.1
CN(C(=O)c1ccno1)c1nnc(-c2ccccn2)s1	i
CCOc1cccc2cc(C(=O)N3CCc4ccccc43)c(=O)oc12	i
COCCCN1C(=O)C(=O)/C(=C(/O)c2ccc(OCC(C)C)cc2)C1c1cccnc1 (configuration not stated)	i
COc1ccc(C(=O)CSc2nc3nc(C)cc(C)n3n2)cc1OC	i
Cc1onc(-c2ccccc2)c1C(=O)Nc1cccc(OC(C)C)c1	i
COc1ccc(NC(=O)N2CCCC2)cc1OC	0.9
Cc1nc(N2CCN(C(=O)c3ccco3)CC2)c2c3c(sc2n1)CCC3	0.6
O=C(c1cncc(Br)c1)N1CCN(c2ccc(N3CCOCC3)nn2)CC1	1.1
CSc1ccccc1-c1nnc(-c2ccc(C)cc2)o1	i
CCOCCOC(=O)C1=C(C)NC2=C(C(=O)CC(c3cccs3)C2)C1c1ccsc1 (configuration not stated)	0.4
COc1ccc(Cn2c(C)c(C)c(C#N)c2NC(=O)Nc2cccc(Cl)c2)cc1	i
Cc1nc2c(s1)sc1ccccc12	0.4
COc1ccc(C(=O)n2nc(C)cc2C)cc1OC	3.1
CCOC(=O)N1CCN(C(=O)c2ccc3c(=O)n(CCC4=CCCCC4)c(=S)[nH]c3c2)CC1	2.3
CC(=O)OCCNC(=O)c1cc2ccccc2oc1=O	i
O=C(CSc1ccccc1)Nc1ccncc1	i
Cc1[nH]c2ccccc2c1C(=O)COC(=O)C(C)C	i
O=C(O)CCc1ccc(-c2ccccc2)n1-c1cccc(O)c1	i

5 entries picked at random from the list so far:
SMILES	H5N1 CPE
COc1ccc(Cn2c(C)c(C)c(C#N)c2NC(=O)Nc2cccc(Cl)c2)cc1	i
CCOCCOC(=O)C1=C(C)NC2=C(C(=O)CC(c3cccs3)C2)C1c1ccsc1 (configuration not stated)	0.4
CCOC(=O)N1CCN(C(=O)c2ccc3c(=O)n(CCC4=CCCCC4)c(=S)[nH]c3c2)CC1	2.3
COc1ccc(C(=O)n2nc(C)cc2C)cc1OC	3.1
Cc1nc2c(s1)sc1ccccc12	0.4

Other structures follow:
SMILES	H5N1 CPE
COCCNC(=O)CN(C(=O)CCC(=O)Nc1cc(C)on1)c1ccc(C)cc1C	i
COc1cc(C(=O)Nc2ccc(-c3nc4cc(C)ccc4o3)c(O)c2)cc(OC)c1OC	i
COc1ccnc(Oc2ccc(C)cc2)c1C#N	i
COC(=O)CNC(=O)C1CCN(C(=O)OCc2ccccc2)CC1	0.9
CC(=O)Cc1nsc(NC(=O)c2cc(-c3ccccc3Cl)oc2C)n1	i
Cc1ccc(N(C)C(=O)Oc2cccc3ccc(C)nc23)cc1	1.7
CCC(=NCCO)c1c(O)n(-c2ccc(Cl)cc2)c(=O)[nH]c1=O	1.2
CCN1c2cccc3cccc(c23)S1(=O)=O	i
c1ccc(C2=Nn3c(nnc3-c3cccnc3)SC2)cc1	6.1
CC(=O)N(CCCN1CCOCC1)Cc1ccncc1	i
O=C(N/N=C\c1cc(Br)cs1)C1COc2ccccc2O1 (configuration not stated)	0.9
COc1ccc(C2C(C#N)=C(/N=C/N3CCOCC3)OC3=C2C(=O)CC(C)(C)C3)cc1OC (configuration not stated)	0.4
CCn1cc(C2=NOC(C(=O)Nc3cccc(C(C)=O)c3)C2)c(C)n1 (configuration not stated)	i
CCCc1cc(=O)[nH]c(SCC(=O)Nc2c(C)cccc2C)n1	0.5
CN(C)C(CNC(=O)CN1C(=O)NC2(CCc3ccccc32)C1=O)c1ccco1 (configuration not stated)	i
COC(=O)c1[nH]c2cccc(Cl)c2c1NC(=O)CN1CCN(CCO)CC1	0.2
COc1ccc(C2SCCN2S(=O)(=O)c2ccc(NC(C)=O)cc2)cc1 (configuration not stated)	1.5
O=C(NCc1ccc2c(c1)OCO2)C1CCC(CNc2c(N3CCCCC3)c(=O)c2=O)CC1 (configuration not stated)	0.4
O=C(c1ccccc1F)N(Cc1ccc(F)cc1)C1CCS(=O)(=O)C1 (configuration not stated)	i
Cc1cc(C)c(S(=O)(=O)Nc2cccnc2)c(C)c1	1.0
COc1ccc(C(=O)NN)cc1COc1ccc(Br)cc1	0.1
O=C1C(C=NCc2cccnc2)=C(O)c2ccccc21	1.5
Cc1cccc(N=C2Sc3nc4c(C)c(C)ccc4cc3CN2CCN2CCOCC2)c1	i
CC(C)CNC(=S)NC1CC2CCCC(C1)N2Cc1ccco1 (configuration not stated)	i
O=C(COc1ccc(S(=O)(=O)NC2CCCCC2)cc1)N1CCN(c2cccc(Cl)c2)CC1	i
O=C(CSc1nnnn1-c1ccccc1Cl)Nc1ccc2c(c1)OCCO2	i
CCOC(=O)C1CCN(C(=O)CN(c2ccc(OC)c(OC)c2)S(=O)(=O)c2ccccc2)CC1	i
NS(=O)(=O)c1ccc(CCNC(=O)c2ccccc2F)cc1	0.4
COc1ccc(N)cc1C#N	i
Cc1ccc(NC(=O)C2=C(O)CCn3c2nc2ccccc23)cc1	0.3
COCC(=O)Nc1ccc(S(=O)(=O)Nc2ncccn2)cc1	0.1
CCOC(=O)C1=NOC(CNC(=O)C2=NOC(CNC(=O)c3c(-c4ccccc4Cl)noc3C)C2)C1 (configuration not stated)	i
COC(=O)C1=C(N)Oc2cc(C)n(CC3CCCO3)c(=O)c2C1c1ccc(Cl)c(Cl)c1 (configuration not stated)	i
CC(C)C12CN3CC(C(C)C)(CN(C1)C3c1ccccc1O)C2=O (configuration not stated)	4.7
COc1ccccc1N1CCN(CC(=O)c2c(C)[nH]c3cc(C)ccc23)CC1	i
CCCCNC(=O)Nc1nnc(-c2ccc(OCC)cc2)o1	1.2
COc1ccc(NC2CS(=O)(=O)CC2OC(=O)c2ccc(F)cc2)cc1 (configuration not stated)	i
O=C(CN1C(=O)c2cccc3cccc1c23)NCc1ccc2c(c1)OCO2	1.3
O=C(Cc1ccccn1)Nc1ccccc1	i
COc1ccc(NC(=S)Nc2ccccn2)c(OC)c1	2.6
CCCCOc1ccc(-n2nc(C)cc2C)nn1	0.7
CCOC(=O)Cc1nnc(NC(=O)c2ccccc2OC)s1	0.2
Cc1nc2scc(-c3ccccc3)c2c(=O)o1	1.3
Cc1noc(C)c1C(=O)Nc1ccc2c(c1)CCC2	0.6
COCC(=O)NCCc1nc2ccccc2[nH]1	1.5
O=C(NCc1cc(C(F)(F)F)cc(C(F)(F)F)c1)C1CC(c2ccccc2[N+](=O)[O-])=NO1 (configuration not stated)	2.1
COc1ccc2c(c1OC)C(=O)OC2c1c(O)n(Cc2ccc(F)cc2)c(=O)[nH]c1=O (configuration not stated)	i
Cc1nnc(SCc2cccc(CSc3nnc(C)s3)c2)s1	i
CCOC(=O)N1CCN(c2c(NCCN3CCCCC3CC)c(=O)c2=O)CC1 (configuration not stated)	1.3
CCOc1ccc(C(c2c(O)nc(SC)n(C)c2=O)c2c(O)nc(SC)n(C)c2=O)cc1	0.0
Cc1nc(-c2ccc(NC(=O)C3CCCCC3)cc2)cs1	i
CCC(C(=O)O)N1C(=O)c2ccccc2C1=O (configuration not stated)	1.0
Cc1ccc2nsnc2c1S(=O)(=O)NCc1cccnc1	0.7
COc1ccc(CCNc2oc(COc3ccccc3F)nc2C#N)cc1OC	i
CCCCCC(=O)Nc1nc(C)c(-c2csc(Nc3cc(Cl)ccc3OC)n2)s1	i
CCN=C1SC(CC(=O)Nc2sc(C)c(C)c2C(=O)OC)C(=O)N1CC (configuration not stated)	i
CN(Cc1cnn(C)c1)C(=O)c1cc2ccccc2oc1=O	i
CN1CCN(C(=S)NCCc2ccccc2)CC1	i
Cc1cccc(CCNC(=O)C2CCCN(S(=O)(=O)c3cnc[nH]3)C2)c1 (configuration not stated)	0.7
CCCn1c(SCC(=O)Nc2sc(C)c(C)c2C#N)nnc1C(C)C	1.9

New compounds follow
SMILES	H5N1 CPE
Cc1cc(F)c(F)c(C(=O)N2CCN(C)CC2)c1Cl	3.0
CC1CCc2c(C(=O)NCCN3CCOCC3)csc2C1 (configuration not stated)	i
O=C(CSCCO)Nc1nccs1	i
Cc1nc2sc(C(c3ccco3)N3CCC(Cc4ccccc4)CC3)c(O)n2n1 (configuration not stated)	0.1
Cc1cc(C(=O)COC(=O)C2=NNC(=O)CC2)c(C)n1-c1ccccc1	i
CCOc1ccccc1-n1c(SCC(=O)Nc2nccs2)nnc1-c1ccoc1C	0.0
CC(CC#CCN1CCOCC1)OCCC#N (configuration not stated)	i
CCOC(=O)COc1cc(N2C(=O)CSCC2=O)c(Cl)cc1Cl	1.4
O=C(COc1cccc(-n2cnnn2)c1)NCCC1=CCCCC1	i
O=S(=O)(NC1CCCC1)c1ccc(Br)s1	0.9
COc1ccc(/C=C/C(=O)c2ccc[nH]2)cc1OC	i
Cc1cc(Oc2ccccc2)nc(-c2ccccc2O)n1	i
O=S(=O)(c1ccc(Br)s1)N1CCN(c2ccccn2)CC1	0.9

Some of the compounds tested; the hit share may differ from the screen's.
